# Source: PubChem
# ZTA counter = counter-screen for EBNA-1 inhibitors: inhibitors of Epstein-Barr virus ZTA | P03206 | ZTA-DNA binding, fluorescence polarization | inhibition, % at 11 µM | actives 0.15% (n = 320,000) | AID 2234; in the data active = inhibition above about 33%
# Target sequence (P03206 whole entry, looked up): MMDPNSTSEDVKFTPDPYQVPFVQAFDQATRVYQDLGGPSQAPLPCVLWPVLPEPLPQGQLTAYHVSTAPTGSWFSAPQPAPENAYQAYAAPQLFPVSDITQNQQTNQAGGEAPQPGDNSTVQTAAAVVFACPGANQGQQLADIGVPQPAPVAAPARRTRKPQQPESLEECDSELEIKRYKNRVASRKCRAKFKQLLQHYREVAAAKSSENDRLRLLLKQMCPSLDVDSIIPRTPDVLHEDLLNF
# MEX-5 binding = C. elegans MEX-5 TCR-2 RNA binding activity | Q9XUB2 | MEX-5/FITC-TCR2 RNA binding, fluorescence polarization; hits give low values | activity score (negative = inhibition of binding), % at 10 µM | actives 0.38% (n = 300,000) | AID 1832;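 active = inhibition past about -25% in most replicates, and total fluorescence under double the plate's negative control median, limit read from the data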;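 note: 0% = DMSO and -100% = 5 µM competing unlabeled TCR2 RNA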
# Target sequence (Q9XUB2 whole entry, looked up): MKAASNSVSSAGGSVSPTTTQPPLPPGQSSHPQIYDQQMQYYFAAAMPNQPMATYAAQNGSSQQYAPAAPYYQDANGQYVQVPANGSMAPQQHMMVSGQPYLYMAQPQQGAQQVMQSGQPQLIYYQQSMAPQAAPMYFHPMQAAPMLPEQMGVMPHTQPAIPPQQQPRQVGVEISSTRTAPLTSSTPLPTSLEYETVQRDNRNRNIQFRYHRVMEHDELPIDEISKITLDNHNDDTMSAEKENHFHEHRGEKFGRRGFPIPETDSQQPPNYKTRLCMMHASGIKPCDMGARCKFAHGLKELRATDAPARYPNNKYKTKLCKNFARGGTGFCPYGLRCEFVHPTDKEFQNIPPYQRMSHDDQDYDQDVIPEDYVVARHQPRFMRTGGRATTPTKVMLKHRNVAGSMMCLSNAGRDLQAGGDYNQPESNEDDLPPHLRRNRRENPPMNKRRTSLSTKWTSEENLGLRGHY
# GLD-1 RNA inh = GLD-1-TGE RNA interaction inhibition (C. elegans) | Q17339 | purified GLD-1 + fluorescein TGE RNA, fluorescence polarization | inhibition, % at 5.96 µM | actives 0.44% (n = 320,000);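 active = percent inhibition above a per-plate cutoff, the plate mean of test compounds plus 3 SD, cut at about 30% in these data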;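 note: 0% = DMSO wells with GLD-1 and probe and 100% = wells lacking GLD-1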
# Efflux pump inh = blocks antifungal efflux pumps in multiplex yeast assay | S. cerevisiae Candida pump triplex, Nile Red efflux | inhibition, % at 10 µM | actives 0.44% (n = 330,000);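 active = plate passing quality check with inhibition over a set limit, or well fluorescence over plate mean plus 4 SD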;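 note: Nile Red retained in pooled yeast measured as flow cytometry median fluorescence; 0% = buffer negative control and 100% = Enniatin B positive control; higher means more Nile Red kept so more efflux inhibition; some compounds called inactive have numbers as strong as hits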
# CR mimetic SO = lowers age-related superoxide in aged yeast cells; superoxide response (% of plate mean), % at 10 µM; AID 2690; S. cerevisiae aged cells, superoxide DHE fluorescence; hits give low values; actives 0.18% (n = 330,000);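 active = superoxide response under a set limit, about three screen SD below normal, cut at about 65% in these data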;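 note: yeast aged for seven days with compound at 30 °C before DHE staining; 100% = average MFI of all compound-treated wells on the plate with controls excluded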
# EBNA-1 inhibitor = blocks EBNA-1 binding to DNA; actives 0.34% (n = 300,000); EBNA-1 DNA binding, fluorescence polarization; inhibition, % at 14.8 µM; in the data active = inhibition above about 28%
# Fam108B counter = Fam108B inhibition, counter-screen for RBBP9 inhibitors | inhibition, % at 9.51 µM | actives 0.33% (n = 300,000) | recombinant Fam108B, FP-Rh probe fluorescence polarization;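 active = inhibition above the screen mean inhibition plus 3 SD, computed separately per campaign, cut at about 18% in these data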;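 note: inhibitors lower polarization as less probe binds the enzyme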
# * hit, by the source's call; . = not tested or not shown; & = joins results of further samples. These rows are one share of the data. The share of hits here may be higher or lower than overall.
# Screens in order – ZTA counter	MEX-5 binding	GLD-1 RNA inh	Efflux pump inh	CR mimetic SO	EBNA-1 inhibitor	Fam108B counter
- COC(=O)C1=NN(c2ccc(Cl)cc2)C2C(=O)N(c3ccccc3OC)C(=O)C12 (stereo unspecified)
 : 6	0.2	-1	0.1	107	4	0
- CCC(C)(CN(C)C)OC(=O)c1ccccc1 (stereo unspecified)
 : -8	.	1	-0.1	105	8	4
- Cn1c(N)c(C(=O)Nc2c(Cl)cccc2Cl)sc1=S
 : -10	-5.2	-1	0.0	106	4	0
- C/C(=N\Nc1ccc(Cl)cc1)c1c(O)cc(C)oc1=O
 : 3	1.7	2	-0.1	103	-2	-1
- O=C(/C=C/NNC(=O)c1cccc(Br)c1)c1cccc(Br)c1
 : -2	-2.1	-4	-0.1	87	-6	0
- O=C(N/N=C/c1cccc([N+](=O)[O-])c1)c1cc(-c2ccc3c(c2)OCO3)n[nH]1
 : -2	0.0	-1	-0.1	102	62*	-11
- COc1ccc(C(=O)NNC(=O)OC(C)(C)C)cc1
 : -9	-0.2	-9	-0.1	93	-11	-1
- CCN(CC)CC(=O)N1c2ccccc2Oc2c(c(=O)n(C)c(=O)n2C)C1c1cccc([N+](=O)[O-])c1 (stereo unspecified)
 : 7	0.5	0	0.0	82	0	2
- CCN(CC)C(=O)CSC(Nc1cccc(F)c1)=C(C#N)C#N
 : -3	3.6	-51	0.0	94	9	-12
- CC(O)CNc1nc2c(c(=O)n(Cc3ccc(Cl)c(Cl)c3)c(=O)n2C)n1C (stereo unspecified)
 : 10	2.3	0	0.1	98	0	-1
- COC(=O)c1cc2ccsc2n1Cc1cccc(F)c1
 : 4	1.7	4	0.0	78	14	3
- COc1ccc(/C=C/C2=Nc3ccccc3NC(C)(C)C2)cc1OC
 : 4	-4.3	2	0.1	104	-7	0
- CCc1cccc2c(C(=O)COC(=O)/C=C/c3ccccc3OC)c[nH]c12
 : -14	0.7	4	0.0	89	7	7
- O=C(O)c1ccc2nc3c(nc2c1)-c1ccccc1C3=O
 : 6	-4.2	6	-0.2	86	16	2
- Cc1cc(=O)oc(C)c1C(=O)N[C@@H]1CCCCNC1=O
 : -3	-1.2	0	0.0	99	-3	-2

# EBNA-1 inhibitor, what is marked active above.
structure	MEX-5 binding	GLD-1 RNA inh	Efflux pump inh	EBNA-1 inhibitor
O=C(N/N=C/c1cccc([N+](=O)[O-])c1)c1cc(-c2ccc3c(c2)OCO3)n[nH]1	0.0	-1	-0.1	62*

# Compound profiles, as listed above:
# `CCN(CC)CC(=O)N1c2ccccc2Oc2c(c(=O)n(C)c(=O)n2C)C1c1cccc([N+](=O)[O-])c1` (stereo unspecified) as listed: ZTA counter = 7; MEX-5 binding = 0.5; GLD-1 RNA inh = 0; Efflux pump inh = 0.0; CR mimetic SO = 82; EBNA-1 inhibitor = 0; Fam108B counter = 2
# `COc1ccc(C(=O)NNC(=O)OC(C)(C)C)cc1` as listed: ZTA counter = -9; MEX-5 binding = -0.2; GLD-1 RNA inh = -9; Efflux pump inh = -0.1; CR mimetic SO = 93; EBNA-1 inhibitor = -11; Fam108B counter = -1

# More compounds follow:
# Screens in order – ZTA counter	MEX-5 binding	GLD-1 RNA inh	Efflux pump inh	CR mimetic SO	EBNA-1 inhibitor	Fam108B counter
- C/C=C/c1ccc(OCCN2CCc3ccccc3C2)c(OC)c1
 : -9	0.7	-10	0.0	101	-17	-1
- CC1=C(C(=O)OCC2CCCO2)C(c2cccc(C(F)(F)F)c2)C2=C(CC(c3ccco3)CC2=O)N1 (stereo unspecified)
 : -11	-0.7	5	0.0	77	16	-5
- COc1ccc2nc(C)cc(SCC(=O)N/N=C/c3cccc4ccccc34)c2c1
 : 0	-1.4	7	0.3	90	-1	-9
- O=S(=O)(c1ccc(F)cc1)N1CCn2c(nc3ccccc32)C1
 : 5	0.0	2	0.1	96	-10	7
- CC(=O)OCC(=O)[C@@]1(O)CCC2C3CCC4=CC(=O)CCC4(C)C3C(=O)CC21C (stereo partly specified)
 : .	-0.8	.	.	.	.	.
- COc1ccc(OCc2nc(N)nc(Nc3ccc(C)cc3)n2)cc1
 : -13	-3.1	7	0.1	102	-3	3
- COC(=O)c1ccc2c(=O)[nH]c(CN3c4ccccc4CC3C)nc2c1 (stereo unspecified)
 : 4	2.4	6	-0.2	89	-10	1
- Cc1cc2ccccc2nc1SCC(=O)N1CCCC1
 : 2	1.7	3	-0.2	94	5	2
- COc1cc2c(cc1OC)-c1cc(N3CCCCCC3)nc(=O)n1CC2
 : -16	-4.3	1	0.1	96	-3	-1
- C/C=C\C(=O)Nc1cccc(C2=NOC3(C2)C[C@H](C(N)=O)N(C(=O)[C@H]2CCC(=O)N2)C3)c1 (stereo partly specified)
 : 14	1.5	-1	-0.1	103	1	2
- O=C(COC(=O)C12CC3CC(CC(C3)C1)C2)NCCc1ccccc1
 : -2	0.1	1	-0.1	97	11	5
- N#CC(c1ccncc1)(c1ncc(C(F)(F)F)cc1Cl)N1CCOCC1 (stereo unspecified)
 : -12	0.7	-6	-0.1	100	0	-4
- CCCCOc1ccc(Cc2c(COCC)[nH]c(=S)[nH]c2=O)cc1
 : -8	1.8	-6	0.0	95	5	2
- Cc1ccc(NC2c3ncccc3C(=O)N2Cc2cccs2)cc1 (stereo unspecified)
 : -7	-1.0	4	-0.1	147	1	3
- CN1CCCC1c1cccnc1 (stereo unspecified)
 : 1	0.4	4	0.1	99	0	1
- CNS(=O)(=O)Cc1ccc2[nH]cc(CCN(C)C)c2c1
 : 8&-1	3.2&0.4	2&-1	0.1&-0.1	101&101	5&-1	-2&-2
- Cc1c(C=O)c2ccccn2c1C(=O)c1ccc(Cl)c([N+](=O)[O-])c1
 : -3	-0.8	0	-0.1	103	5	3
- CCc1ccc(NC(=O)c2cnn(-c3ccccc3)c2C)cc1
 : -14	1.4	-6	-0.3	114	6	-3
- COc1cc(/C=N/NC(=S)NC(C)C)ccc1OCC(=O)Nc1c(C)cc(C)cc1C
 : -10	-0.7	6	-0.1	94	-6	-10
- O=S(=O)(Cc1cccc(C(F)(F)F)c1)c1ncn[nH]1
 : 14	-2.9	2	0.1	110	-1	-3
- O=C(Nc1ccc(NC(=O)c2sc3ccccc3c2Cl)cc1Cl)c1ccco1
 : 21	-0.7	-2	0.3	100	4	-18
- COc1ccc(-c2ccc3c(N)c(C(=O)c4cccc(OC)c4)sc3n2)cc1
 : -4	1.9	-14	0.1	99	17	2
- CCN(CC)C(=O)CSC(Nc1ccc(F)cc1)=C(C#N)C#N
 : -3	5.4	-28	0.1	84	4	-6
- Cc1ccc(NC2=C(Cl)C(=O)OC2OC(=O)c2ccc(C)cc2)cc1 (stereo unspecified)
 : -2	1.2	0	0.0	110	0	1
- CSc1nc2ccc3nc(NC(=O)c4ccc(C)cc4)sc3c2s1
 : -1	-5.9	-1	-0.2	125	-1	-12
- CC1=C(C(=O)Nc2ccccc2)C(c2cccnc2)n2ncnc2N1 (stereo unspecified)
 : -5	0.6	-1	-0.1	101	4	9
- Cc1ccc(Cn2c(=O)c3c(nc4n3CCN4Cc3ccco3)n(C)c2=O)cc1
 : -9	1.6	1	-0.3	100	9	-4
- O=C(O)C[C@@H](O)C(=O)O
 : 9	3.1	6	-0.1	104	5	-3
- C=C(C)CN=C1SC(C(=O)Nc2sc3c(c2C(=O)OC)CCC3)C(N)=C1C(N)=O (stereo unspecified)
 : -9	1.2	3	0.5	97	-4	9
- Nc1ccc2c(c1)C(=O)c1ccccc1C2=O
 : -11	0.3	14	-0.1	112	-6	3
- CC(C)OCC1CO1 (stereo unspecified)
 : -5	.	0	0.2	94	.	.
- COc1ccc(OC)c(-n2c(-c3cc(-c4ccc(F)cc4)n[nH]3)n[nH]c2=S)c1
 : 4	0.9	3	-0.1	93	16	0
- CN1CCN(C(=O)/C=C/c2ccc(Cl)cc2)CC1
 : 6	0.0	4	-0.2	102	-8	-4
- COc1ccc(-n2ncc3c(NC(C)C)ncnc32)cc1
 : 10	2.2	3	0.0	85	7	-2
- NC(=O)N1c2ccccc2C=Cc2ccccc21
 : 10&0	0.7	6&1	-0.1&0.0	100&121	-3	5
- CC1(C)N([O-])c2cc([N+](=O)[O-])ccc2[N+]1=O
 : -4	.	8	0.1	96	-3	15
- Cc1ccc(NC2SC(=O)N(CC(=O)O)C2=O)cc1 (stereo unspecified)
 : 12	0.7	2	0.0	91	6	-3
- CC(C)(C)c1ccc(OCC(=O)NNC(=O)c2cccnc2)cc1
 : 11	1.1	3	0.1	109	-10	6
- COc1cc(/C=N/NC(N)=S)ccc1OCC(=O)Nc1ccc(C)cc1
 : 34*	1.8	-6	-0.3	102	47*	1
- CCc1cccc(NC(=O)C(NC(=O)C2CCCCC2)C(C)C)c1 (stereo unspecified)
 : -8	1.6	0	0.0	110	-2	-1
- Brc1ccccc1-c1nnc(SCc2nc3ccccc3s2)o1
 : 14	1.2	2	0.0	99	17	-2
- CC(C)NC(=O)CNc1ccc(C(F)(F)F)cc1[N+](=O)[O-]
 : -20	15	14	0.0	120	-7	-1
- CCOC(=O)c1cc(C(=O)OCC)c(=O)[nH]c1N1CCCCC1
 : 2	0.6	3	0.1	81	-7	0
- CC(NS(=O)(=O)c1ccc(Cl)cc1)C(=O)OCC(=O)c1ccc[nH]1 (stereo unspecified)
 : 7	.	10	0.1	141	.	.
- CCc1cc(C(c2ccccc2OC)N2CCOCC2)c(NC(=O)c2ccccc2)s1 (stereo unspecified)
 : 1	2.0	-6	0.1	96	-4	-3

# (continued)
SMILES,ZTA counter,MEX-5 binding,GLD-1 RNA inh,Efflux pump inh,CR mimetic SO,EBNA-1 inhibitor,Fam108B counter
C=CCSc1nnc2c(n1)[nH]c1c(C)cccc12,0,-0.2,6,-0.7,112,-5,-7
CN(c1ccccc1)c1nc(N2CCCC2)nc(-n2ccnc2)n1,16,2.5,5,0.1,91,1,-1
COC(=O)c1ccc(-n2cc(-c3ccc(OC)cc3)[nH]c2=S)cc1,1,.,-14,-0.3,91,-5,5
CCN(CC)S(=O)(=O)c1ccc(C)c(C(=O)Oc2cccc(-c3cnc4ccccc4n3)c2)c1,-12,0.2,-1,0.8,110,-6,-2
COc1ccc(OC)c(/C=C2\S/C(=N/NC(=O)c3ccc4ccccc4c3)NC2=O)c1,7,-17,7,-0.2,78,6,32*
NC(=O)[C@H]1CC2(CC(c3cccc(NC(=O)[C@H]4CCC(=O)N4)c3)=NO2)CN1C(=O)c1ccccc1 (stereo partly specified),-24,-8.0,11,0.1,143,0,6
CC(C)(C#N)c1cc(Cn2cncn2)cc(C(C)(C)C#N)c1,-16,0.8,5,-0.1,99,0,4
COc1ccc2cc(/C=N/NC(=O)CSCc3ccc([N+](=O)[O-])cc3)c(Cl)nc2c1,8,-7.4,-6,0.0,107,7,-2
Cc1sc2nc(CSc3ccccc3)nc(NCCN(C)C)c2c1C,-2,1.2,0,0.2,117,-13,2
COc1cccc(NC(=O)CN(C)C(=O)COc2ccc3ccccc3c2)c1,11,-0.8,9,-0.4,98,-8,2
O=C(CSCc1ccccc1Br)N/N=C/c1ccc(OCC(=O)N2CCCCC2)cc1,11,2.9,-6,0.0,106,-4,0
COc1ccc(-n2nc(C(=O)NCc3ccco3)c3c4ccccc4n(C)c3c2=O)cc1,8,1.2,4,0.0,102,11,-1
O=[N+]([O-])c1cc(-c2n[nH]c(-c3ccccc3)n2)cc([N+](=O)[O-])c1,-5,3.5,-4,-0.2,92,-1,6
CC(C)(C)n1nnnc1CN1CCN2CCCC2C1 (stereo unspecified),1,-3.8,-5,0.0,94,2,-3
CCOC(=O)N1CCN(C(=S)NC2CCCCC2)CC1,-25,-0.4,4,-0.1,99,-3,2
Cc1ccc(-n2c(=O)[nH]c3c(C(N)=O)nc(-c4ccc(C)o4)nc32)cc1,-9,0.0,-2,-0.1,94,3,-7
Cc1ccc(-n2c(O)cnc2Nc2nc(C)cc(C)n2)cc1,-9,-1.8,8,0.0,107,-6,0
COc1ccc(-c2nnc(-c3ccc(N(C)C)cc3)o2)cc1,3,0.0,1,0.2,119,2,7
Nc1ccc(C(=O)OC2CCOC2=O)cc1[N+](=O)[O-] (stereo unspecified),8,1.2,2,-0.1,113,-10,-5
